FGF22 binding: binders of human FGF22 protein, primary screen, FGF22 synaptogenesis inhibitor project, biophysical, thermal shift, single point; Fibroblast growth factor 22 (Homo sapiens), Q9HCT0; recombinant FGF22 thermal shift, SYPRO orange fluorescence; percent of sucrose octasulfate shift, DMSO zero; calls only at 9.99 µM; actives 1.5% (n = 340,000);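 active means melting point raised past a set limit in the mean and every replicate; three in four hits are not shown here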
Target sequence (Q9HCT0 whole entry, looked up): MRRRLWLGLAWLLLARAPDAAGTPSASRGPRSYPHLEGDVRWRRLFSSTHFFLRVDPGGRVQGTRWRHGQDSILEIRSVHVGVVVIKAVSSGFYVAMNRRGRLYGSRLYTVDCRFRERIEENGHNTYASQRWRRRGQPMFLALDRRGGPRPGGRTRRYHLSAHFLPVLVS
HNF4A DNA FP: change in binding of human HNF4A to DNA, primary screen, biochemical, fluorescence polarization, FITC-DNA. Hepatocyte nuclear factor 4-alpha (Homo sapiens), P41235. 1 h. activity change, % at 10 µM. actives 0.3% (n = 360,000). AID 1224865, 2016; in the data active means activity change above about 30%, passing the limit was not always enough;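 further: controls were the assay level and a saturating level of protein; the project sought stronger binding though the title names inhibitors; some compounds called inactive have numbers as strong as hits; positive values seem to mean higher polarization but the record does not say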
Target sequence (P41235 whole entry, looked up): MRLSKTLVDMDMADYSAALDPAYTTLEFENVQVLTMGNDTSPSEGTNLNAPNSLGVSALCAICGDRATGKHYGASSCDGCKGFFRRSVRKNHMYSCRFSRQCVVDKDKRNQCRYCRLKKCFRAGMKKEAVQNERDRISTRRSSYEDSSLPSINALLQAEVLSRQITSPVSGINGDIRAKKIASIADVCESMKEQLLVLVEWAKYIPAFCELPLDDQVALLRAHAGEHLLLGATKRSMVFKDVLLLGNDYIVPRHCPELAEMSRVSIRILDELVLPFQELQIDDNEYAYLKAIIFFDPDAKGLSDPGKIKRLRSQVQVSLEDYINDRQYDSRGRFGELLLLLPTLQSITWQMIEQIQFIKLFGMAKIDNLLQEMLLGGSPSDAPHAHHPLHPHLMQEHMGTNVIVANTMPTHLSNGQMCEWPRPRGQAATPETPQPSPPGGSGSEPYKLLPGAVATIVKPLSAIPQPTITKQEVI
* = called active by the depositor; i = inactive. These rows are one share of the data; rates above refer to the full screens.

SMILES	FGF22 binding	HNF4A DNA FP
O=c1ccn2c(n1)SC(c1ccccc1)C2 (stereo unspecified)	i	2.2
CCCc1ccc2ccc3ccccc3c2n1	i	-4.3
CC(=O)Nc1cc(-c2cccc(C(=O)NCCO)c2)cn2c(-c3ccc(F)cc3)cnc12	i	-3.0
C[C@H](CO)NC(=O)c1[nH]cnc1C(=O)Nc1ccc(CNC(=O)OC(C)(C)C)cc1	i	-0.3
CC(C)c1ccc(NC(=O)C2Cc3c(-c4ccccc4Oc4ccccc4)ccnc3O2)cc1 (stereo unspecified)	i	1.1
COc1cccc(S(=O)(=O)N(C)C[C@@H]2OCc3cnnn3CCCC(=O)N([C@@H](C)CO)C[C@H]2C)c1	i	-1.7
CC(=O)c1cccc(NC(=O)C2(C)Cc3c(-c4cccc(C(N)=O)c4)ccnc3O2)c1 (stereo unspecified)	i	1.7
CCCc1nc2ccccc2n1C(C)C(=O)NC(C)(C)C (stereo unspecified)	i	0.9
O=C(c1cccs1)N1C[C@@H](n2cc(C3CC3)nn2)[C@H](O)C[C@@H]1c1ccccc1	i	-0.1
COc1ccc(OC)c(NC(=O)Nc2nc(C(C)N)cs2)c1 (stereo unspecified)	i	2.6
O=C1c2c(-c3ccc(Br)cc3)noc2CCN1Cc1cn(Cc2ccccc2)nn1	i	6.9
CCCn1c(=S)[nH]c2cc(C(=O)N3CCN(C)CC3)ccc2c1=O	i	1.9
Cc1cccc(S(=O)(=O)N(C)C[C@H]2OCc3cn(nn3)CCCC(=O)N([C@H](C)CO)C[C@@H]2C)c1	i	-0.4
C/C=C/c1cnc2c(c1)C(=O)N([C@H](C)CO)C[C@H](C)[C@@H](CN(C)C(=O)CN1CCOCC1)O2	i	0.1
CCCCCc1c(-c2ccc(Cl)cc2)ncn1CCc1ccccc1OC	i	0.2
CCc1ccc2c(c1)NC(=O)C2(C)Cc1ccc(C(F)(F)F)o1 (stereo unspecified)	i	2.0
CC(C)(C)OC(=O)N1CCN(C(=O)c2ncn3c2c(=O)[nH]c2ccccc23)CC1	i	-4.5
C[C@@H]1CN([C@H](C)CO)C(=O)CCCn2cc(nn2)CO[C@H]1CN(C)C(=O)Nc1cccc(Oc2ccccn2)c1	i	-2.3
COC(=O)c1c(C)[nH]c(C(=O)OC(C)C(=O)NC2CCCCC2C)c1C (stereo unspecified)	i	2.4
CC1(C(=O)Nc2ccc3c(c2)OCCO3)CCN1C(=O)C1(c2ccc(Cl)cc2)CC1 (stereo unspecified)	i	-1.9
CCc1nc2ccc(C(=O)NCCOc3ccc(OC)cc3)cn2c1N(C)Cc1cccs1	i	1.5
CC(C)Oc1ccc(CN2CCC2(C)C(=O)Nc2cnc3ccccc3c2)cc1 (stereo unspecified)	i	4.8
CC(O)CC(=O)OC[C@]12CC[C@H]3[C@@](C)(CC[C@H]4C(C)(C)CCC[C@]34C)[C@@H]1CC(C1=CC(=O)OC1O)O2 (stereo partly specified)	i	-6.4
CCCCN(C=O)c1c(CC)nc2ccc(C(=O)NCc3ccc4c(c3)OCO4)cn12	i	1.9
CCOC(=O)C1(c2ccccc2)SC(C(=O)OCC)(c2ccccc2)S1 (stereo unspecified)	i	0.2
CCCc1ccc(C(O)c2ncc(-c3ccc(OC)cc3)[nH]2)cc1 (stereo unspecified)	i	5.2
O=C(NCc1cccnc1)c1cc(C2CCCCN2C(=O)c2ccc(Cl)cc2)on1 (stereo unspecified)	i	1.8
COc1ccc(NC(=O)CN(C)C(=O)c2cc(C)oc2C)cc1	i	3.0
O[C@H]1CN(Cc2cccs2)[C@@H](c2ccccc2)C[C@@H]1n1cc(-c2ccc(F)cc2)nn1	i	3.9
COc1cccc(NC(=O)N2CCc3nc(Nc4ccc(C(C)C)cc4)ncc3C2)c1	i	3.8
C[C@H](CO)N1C[C@H](C)[C@H](CN(C)S(=O)(=O)c2cccc(F)c2)Oc2ncc(-c3cccc(C(=O)N(C)C)c3)cc2C1=O	i	-0.9
CC(C)c1cccc(-c2csc(C(O)c3ccco3)n2)c1 (stereo unspecified)	i	2.5
COc1ccc(S(=O)(=O)N2CCCCCC2)cc1NC(=O)CCNC(=O)c1ccccc1Cl	i	-3.3
Cc1cccc(NC(=O)c2nc[nH]c2C(=O)Nc2cc(Br)ccc2F)c1	i	-1.8
COc1ccc(NC(=O)c2cc(-c3cc(Cl)ccc3C)n[nH]2)cc1OC	i	3.6
COc1ccc(NC(=O)C2(C)Cc3c(-c4ccc(NC(C)=O)cc4)ccnc3O2)cc1OC (stereo unspecified)	i	-3.4
CCOC1=C2[C@H](c3ccccc3)N(S(=O)(=O)c3ccc(C)cc3)C(C(C)(C)C)[C@H]2C(C#N)(C#N)C(C#N)(C#N)C1 (stereo partly specified)	i	4.7
COCCCNC(=O)c1csc([C@H]2C[C@H](O)[C@@H](CO)O2)n1	i	-4.8
COc1ccccc1CNC(=O)C1CCCN1S(=O)(=O)c1ccc2c(c1)C(C)(C)C(=O)N2C (stereo unspecified)	i	0.8
CCCCCNC(=O)C(c1ccc(-c2ccccc2)cc1)n1c(=O)c(-c2ccccc2)nc2ccccc21 (stereo unspecified)	i	1.8
CC(=O)NCCNc1nc(NC(C)C)nc2ccsc12	i	0.9
CCNC(=O)C1CCCN(C(=O)c2cc(C)oc2C)CC1 (stereo unspecified)	i	-0.7
Cc1cc(N2CCN(C(c3ccnc4ccccc34)c3nnnn3-c3c(C)cccc3C)CC2)c2ccccc2n1 (stereo unspecified)	i	0.7
CCc1nc2ccc(C(=O)Nc3ccc4c(c3)OCC(=O)N4)cn2c1N(CC)Cc1cccc(Br)c1	i	1.7
CN(CC(=O)Nc1c(Cl)cccc1Cl)CC(=O)N1CCc2ccccc21	i	1.8
CCc1nc2ccc(C(=O)N3CCN(C(=O)c4ccco4)CC3)cn2c1N(C)CCC(C)C	i	-1.5
C[C@@H]1CN([C@H](C)CO)C(=O)CCCn2nncc2CO[C@H]1CN(C)Cc1ccccc1C(=O)O	i	-3.3
O=S1(=O)CCN(Cc2cccnc2)CC1	i	3.2
CCOP(=O)(OCC)C(Cc1ccc(OC)c(OC)c1)N=C(c1ccccc1)c1ccccc1 (stereo unspecified)	i	2.5
Cn1c(=O)c2cc(NC(=O)OCCF)ccc2n1Cc1cccc(C(F)(F)F)c1	i	3.9
COc1ccccc1CNc1nc(NCc2ccccc2)nc2ccsc12	i	-3.4
CN(C)CCCNc1nc2cc(-c3cncnc3)sc2c(=O)n1C	i	1.4
C[C@H](CO)N1C[C@H](C)[C@@H](CN(C)C(=O)c2ccc3ccn(C)c3c2)OCc2cnnn2CCCC1=O	i	-2.0
Oc1ccc(Br)c(CN2CCN(c3ncc(Cc4ccccc4)cn3)CC2)c1	i	0.0
CC1(c2nnnn2-c2ccc3c(c2)OCCO3)CCC(=O)N1C1CC1 (stereo unspecified)	i	4.1
C[C@@H]1CCCCO[C@@H](CN(C)S(=O)(=O)c2ccccc2)[C@@H](C)CN([C@H](C)CO)C(=O)c2cc(N(C)C)ccc2O1	i	1.4
CS(=O)(=O)Nc1ccc(F)cc1	i	0.8
CCCCCCN1C[C@H](O)[C@@H](n2cc(COC(=O)c3ccccc3)nn2)C[C@@H]1c1ccc(C)cc1	i	-0.5
O=C(OCCO)c1c(C2=CCCCC2)oc2c1C(OCCO)CCC2 (stereo unspecified)	i	-1.1
CCOC(=O)C(C#N)C(=N)C1C(=O)OC2CCCCC21 (stereo unspecified)	i	3.3

The list goes on, overlapping the part above by four compounds.
SMILES	FGF22 binding	HNF4A DNA FP
CS(=O)(=O)Nc1ccc(F)cc1	i	0.8
CCCCCCN1C[C@H](O)[C@@H](n2cc(COC(=O)c3ccccc3)nn2)C[C@@H]1c1ccc(C)cc1	i	-0.5
O=C(OCCO)c1c(C2=CCCCC2)oc2c1C(OCCO)CCC2 (stereo unspecified)	i	-1.1
CCOC(=O)C(C#N)C(=N)C1C(=O)OC2CCCCC21 (stereo unspecified)	i	3.3
CC(=O)Nc1cc(-c2cccc(C(=O)NCCN(C)C)c2)cn2c(-c3ccc(F)c(Cl)c3)cnc12	i	6.1
CCCCN(C=O)c1c(CC)nc2ccc(C(=O)NCCc3c[nH]c4ccccc34)cn12	i	-3.3
COc1ccc(F)cc1-c1cc(C(=O)N2CCc3ccccc3C2)[nH]n1	i	-7.1
C/C(=N/NS(=O)(=O)c1ccc(Br)cc1)c1cccc(NC(=O)C2CC2)c1	i	0.0
N#Cc1cnc2nc1NCCCCCCC2	i	-0.3
CCN(CC(=O)Nc1ccccc1C(F)(F)F)C(=O)c1ccc(NC(=O)c2cccs2)cc1	i	-1.0
O=C(Nc1cccc(Br)c1)Oc1cccc2cccnc12	i	1.0
O=C(O)CN1C(=O)C2C3CCC(C3)C2C1=O (stereo unspecified)	i	2.3
CC(=O)C1=CCC(c2ccccc2F)N(S(=O)(=O)c2ccc(C)cc2)C1 (stereo unspecified)	i	-3.8
Cc1ccccc1S(=O)(=O)N(C)C[C@@H]1OCc2ccccc2-c2c(n(C)c3ccccc23)C(=O)N([C@H](C)CO)C[C@@H]1C	i	-4.2
Cc1[nH]c(=O)[nH]c(=O)c1C=CC(=O)NC(CO)CS(=O)Cc1ccccc1 (stereo unspecified)	i	-1.9
Cc1cc(C)cc(Cn2cc(CN3CC(N4CCCCC4)CS3(=O)=O)nn2)c1 (stereo unspecified)	i	-0.7
C[C@H]1CCCCO[C@@H](CN(C)C(=O)NC2CCCCC2)[C@@H](C)CN([C@@H](C)CO)C(=O)c2cc(NC(=O)Cc3ccccc3)ccc2O1	i	2.9
Cn1ccc2c(N3CCCCCCC3)cc3c(c21)C1CCC3O1 (stereo unspecified)	i	-2.1
CC(=O)Nc1ccc(CN(C)c2c(C)nc3ccc(C(=O)NCCCn4ccnc4)cn23)cc1	i	-0.3
CC(C)(C)n1nnnc1C(c1ccccc1)N1CCN(C(=O)C2CCCO2)CC1 (stereo unspecified)	i	1.0
Cn1ccc2c(-c3cccnc3)cc3c(c21)C1CCC3O1 (stereo unspecified)	i	2.6
CCC(C(=O)NCc1ccccc1)n1c(Cc2cc(F)cc(F)c2)nc2ccccc21 (stereo unspecified)	i	0.3
O=C(NNC(=O)c1cccc(S(=O)(=O)Nc2ccccc2F)c1)c1ccncc1	i	8.4
C[C@@H]1CN([C@H](C)CO)C(=O)CCCn2cc(nn2)CO[C@H]1CN(C)C(=O)C1CCCCC1	i	3.5

Whole records from above. Screens in order: FGF22 binding, HNF4A DNA FP
C[C@H](CO)NC(=O)c1[nH]cnc1C(=O)Nc1ccc(CNC(=O)OC(C)(C)C)cc1 in the list: i, -0.3
CC1(C(=O)Nc2ccc3c(c2)OCCO3)CCN1C(=O)C1(c2ccc(Cl)cc2)CC1 (stereo unspecified) in the list: i, -1.9

(further entries)
SMILES	FGF22 binding	HNF4A DNA FP
CC(C)C1C(=O)N(Cc2cn(CC3CCCCC3)nn2)CCS(=O)(=O)N1Cc1ccc(-c2ccc(F)cc2)cc1 (stereo unspecified)	i	3.5
Oc1ccc(C[C@H]2CN([C@@H](Cc3ccccc3)CN3CCC[C@@H]3CN3C(=S)NC[C@@H]3Cc3ccccc3)C(=S)N2CC2CCCCC2)cc1	i	-0.5
CC(C)C[C@H]1CN(CCCC[C@@H]2CNC(=O)C(=O)N2Cc2ccccc2)C(=O)C(=O)N1Cc1ccccc1	i	-1.6
C=CCN1[C@@H](Cc2ccccc2)COc2cc(N3CCSCC3)ccc2S1(=O)=O	i	-0.2
COc1ccccc1C(O)c1ncc(-c2cccc(C(F)(F)F)c2)[nH]1 (stereo unspecified)	i	-0.8
O=C(NCCCN1CCC(Cc2ccccc2)CC1)c1ccc(CS(=O)c2ccccc2Cl)o1 (stereo unspecified)	i	2.1
C[C@@H]1CN([C@@H](C)CO)C(=O)c2cc(NC(=O)C3CCCCC3)ccc2O[C@@H](C)CCCCO[C@@H]1CN(C)C(=O)CCCN(C)C	i	0.2
CC(N)c1csc(NC(=O)Nc2cccc(C(F)(F)F)c2)n1 (stereo unspecified)	i	-1.0
CC(C)(C)C1CCN2CCCC(c3ccc([N+](=O)[O-])cc3)(C1)C21OCCO1 (stereo unspecified)	i	-2.7
O=S1(=O)CC(N2CCN(c3ccccn3)CC2)CN1C1CCCCC1 (stereo unspecified)	i	-0.3
O=c1[nH]nc2c3ccccc3occ1-2	i	1.1
Cc1ccc(S(=O)(=O)C[C@@H]2OC[C@H](Cc3ccccc3)N2S(=O)(=O)c2ccc(C)cc2)cc1	i	2.8
CCOC(=O)c1ccn(S(=O)(=O)c2ccc(C)cc2)c1-c1ccccc1	i	-5.3
C[C@H](CO)N1C[C@H](C)[C@@H](CN(C)C(=O)Nc2cccc(F)c2)Oc2ncc(Br)cc2C1=O	i	-1.3
CCN(CC)C(=O)C1=C(C)N(Cc2ccc(OC)cc2)C(=O)C(CC(=O)NCC2CCCCC2)C1 (stereo unspecified)	i	0.5
CC1(C(=O)NCc2cccc3ccccc23)CCN1Cc1ccc2ccccc2c1 (stereo unspecified)	i	1.8
CC(=O)c1cccc(NC(=O)C2Cc3c(-c4cccc(C(N)=O)c4)ccnc3O2)c1 (stereo unspecified)	i	7.4
C(=C\c1ccccc1)/CN1CCN(C(c2ccccc2)c2nnnn2-c2ccc3c(c2)OCCO3)CC1 (stereo unspecified)	i	-0.4

Another view of 5 compounds above.
Fields – FGF22 binding | HNF4A DNA FP
> Cc1ccc(S(=O)(=O)C[C@@H]2OC[C@H](Cc3ccccc3)N2S(=O)(=O)c2ccc(C)cc2)cc1
  i | 2.8
> CCOC(=O)c1ccn(S(=O)(=O)c2ccc(C)cc2)c1-c1ccccc1
  i | -5.3
> C[C@H](CO)N1C[C@H](C)[C@@H](CN(C)C(=O)Nc2cccc(F)c2)Oc2ncc(Br)cc2C1=O
  i | -1.3
> CCN(CC)C(=O)C1=C(C)N(Cc2ccc(OC)cc2)C(=O)C(CC(=O)NCC2CCCCC2)C1 (stereo unspecified)
  i | 0.5
> CC1(C(=O)NCc2cccc3ccccc23)CCN1Cc1ccc2ccccc2c1 (stereo unspecified)
  i | 1.8

Assay outcomes deposited in PubChem by several laboratories.
